Six1-Eya2 blk: blocks human Six1 binding to Eya2 | activity change, % (no concentration beside the values) | AlphaScreen GST-Six1/His-Eya2 binding, biochemical; active compounds read low; control for the full effect not named in the record | actives 0.56% (n = 360,000); in the data active = activity change below about -65%; inconclusive = about -30% to -65%; inactive = above about -30%; note: % is set by controls: 0 for no effect and ±100 for the full control effect
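AlphaScreen luminescence read after one hour at 37 °C in darkness. Pin-transferred compounds met GST-Six1 and His-Eya2 protein (5X stock 250 nM/500 nM) plus glutathione donor and Ni-chelate acceptor beads (5X, 50 ug/mL).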
D2 PAM: potentiates the human D2 dopamine receptor allosterically | P14416 | DiscoveRx D2 beta-arrestin cells, luminescence, 90 min; 100% = 57 uM dopamine signal | potentiation, % (concentration not given with the values) | actives 0.23% (n = 360,000) | AID 624464; active = potentiation of 50% or more; inconclusive = 30% to 50%; inactive = 30% or less;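 note: compound concentration not given in the record; tested on top of an EC20 dose of dopamine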
Target sequence (P14416 whole entry, looked up): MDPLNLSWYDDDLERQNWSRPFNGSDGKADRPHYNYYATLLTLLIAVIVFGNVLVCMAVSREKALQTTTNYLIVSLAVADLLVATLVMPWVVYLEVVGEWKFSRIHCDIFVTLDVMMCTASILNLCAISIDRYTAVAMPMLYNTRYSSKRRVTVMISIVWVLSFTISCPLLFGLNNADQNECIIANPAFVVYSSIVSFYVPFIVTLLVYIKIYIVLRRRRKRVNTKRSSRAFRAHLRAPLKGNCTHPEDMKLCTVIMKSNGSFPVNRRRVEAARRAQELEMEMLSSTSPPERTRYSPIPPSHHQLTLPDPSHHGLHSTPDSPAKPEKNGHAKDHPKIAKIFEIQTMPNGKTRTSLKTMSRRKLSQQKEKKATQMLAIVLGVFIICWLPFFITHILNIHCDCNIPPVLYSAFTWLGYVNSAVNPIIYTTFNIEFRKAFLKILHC
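D2 cells co-treated with compound plus 50 nM dopamine (EC20) for 90 min at 37 deg C to detect potentiation. Beta-arrestin recruitment was read as enzyme-fragment luminescence after 1 h at ambient temperature. Full response was set by 57 uM dopamine.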
D2 ag: agonists of human D2 dopamine receptor (beta-arrestin). P14416. DiscoveRx PathHunter D2 beta-arrestin, luminescence, 90 min; 100% = 57 uM dopamine signal. activation, % (no concentration beside the values). actives 0.084% (n = 360,000). AID 624465; in the data active = activation above about 40%; inconclusive = about 15% to 40%; inactive = below about 15%; note: compound concentration not given in the record; the text of the record calls up to 30% inactive
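Agonist mode: compounds alone added to overnight-plated D2 PathHunter cells for 90 min at 37 C, with 57 uM final dopamine (EC100) defining full response. Beta-arrestin recruitment detected by chemiluminescent reagent, read after 1 h at ambient temperature.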
TRPML1 blocker: inhibitors of human TRPML1 channel | Q9GZU1 | TRPML1-inducible cells, Ca2+ dye fluorescence, FDSS; active compounds read low; inhibition of EC80 agonist-evoked calcium signal | activity change, negative = inhibition, % (no concentration beside the values) | actives 0.02% (n = 390,000) | AID 624415; in the data active means activity change below about -50%; inconclusive means about -30% to -50%; inactive means above about -30%;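 note: stimulus is agonist 54-4 at its EC80 concentration; % is set by controls: 0 for no effect and ±100 for the full control effect; compound concentration not given in the record; the text of the record puts the active cut at -80%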
Target sequence (Q9GZU1 whole entry, looked up): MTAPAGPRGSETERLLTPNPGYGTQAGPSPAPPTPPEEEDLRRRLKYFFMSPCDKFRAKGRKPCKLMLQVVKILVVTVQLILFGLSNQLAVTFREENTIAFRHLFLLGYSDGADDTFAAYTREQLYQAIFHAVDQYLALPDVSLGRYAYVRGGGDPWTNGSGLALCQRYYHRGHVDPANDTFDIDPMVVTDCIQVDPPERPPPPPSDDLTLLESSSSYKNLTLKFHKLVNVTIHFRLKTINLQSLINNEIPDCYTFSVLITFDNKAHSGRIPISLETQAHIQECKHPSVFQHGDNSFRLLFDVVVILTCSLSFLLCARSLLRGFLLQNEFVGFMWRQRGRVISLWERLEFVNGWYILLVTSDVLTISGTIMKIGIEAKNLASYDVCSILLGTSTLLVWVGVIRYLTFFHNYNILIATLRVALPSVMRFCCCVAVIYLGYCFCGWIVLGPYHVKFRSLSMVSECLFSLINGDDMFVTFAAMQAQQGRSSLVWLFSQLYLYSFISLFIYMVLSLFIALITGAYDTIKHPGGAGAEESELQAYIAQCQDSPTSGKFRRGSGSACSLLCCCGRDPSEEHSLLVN
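Calcium fluorescence in TRPML1-DL cells induced overnight with Tet: a 110 s read after compound pin addition, then a 110 s antagonist read after challenge with 54-4 at 4 uM final (EC80).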
TRPML1 agonist: agonists of human TRPML1 channel. Q9GZU1. TRPML1-expressing cells, Ca2+ dye fluorescence, FDSS; host cell line not named in the record; reference of the full effect not given here. activation, % (test concentration not listed). actives 0.12% (n = 410,000); in the data active = activation above about 50%; inconclusive = about 30% to 50%; inactive = below about 30%; note: 0% is about no effect; the text of the record puts the active cut at 80%
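In this qHTS format, compounds were pin-transferred onto Ca8-dye-loaded TRPML1-DL cells induced with Tet overnight, and intracellular Ca2+ fluorescence was recorded kinetically for 110 s after a 10 s baseline. A subsequent 4uM final 54-4 (EC80) addition followed by a second 110 s read served as the antagonist phase.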
PINK1 expr mod: PINK1 expression modulation. PINK1 immunofluorescence, high-content cytometry, 24 h. Potency, µM (series often up to 76.6 µM), for inactives: at the highest dose activation (PINK1 increase), usual class: activators. actives 0.2% (n = 410,000); active = well fitted activation curve with a large enough effect; inconclusive = small, poorly fitted or top-dose-only effect; inactive = flat fitted curve, though single readings scatter; cell line not stated here;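 note: potency is the fitted concentration of half-maximal effect; % of control where 0% means no effect; nearly all actives have a fitted effect of over 65% in size; a mitochondrial uncoupler was the plate control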
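A stable cell line was treated with compounds at 5 concentrations for 24 hours, with CCCP as control. PINK1 levels and mitochondrial localization were measured by immunofluorescence with mitochondrial, cell and nuclear markers after fixation, read by laser-scanning cytometry.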
* = called active by the depositor; u = inconclusive; x = no result given; & = joins results of further samples; [ ] = another dose, or the depositor's remark.

Results follow in this order: Six1-Eya2 blk, D2 PAM, D2 ag, TRPML1 blocker, TRPML1 agonist, PINK1 expr mod
(1) O=C(C1CCC(CNS(=O)(=O)c2cccs2)CC1)N1CCN(c2ccc(Cl)cc2)CC1 (configuration not stated)
  -1.2, 1.1, 5.0, -1.7&13.6, 2.1&4.0, 4.6%&-0.2%
(2) Cc1cccc(-c2cnc(C(O)c3ccc(-c4ccccc4)cc3)[nH]2)c1 (configuration not stated)
  -16.1, -15.4, -5.2, 25.6, -0.5, u
(3) CCOc1ccc(NC(=O)N(CCC(C)C)C2CCN(C(C)=O)CC2)cc1
  2.3, -3.5, -2.0, 12.5, 0.0, -1.7%[38.3 µM]
(4) COc1ccc2c(c1OC)C(=O)N1N=C(c3ccc(Cl)cc3)CC21 (configuration not stated)
  4.3, -10.5, 0.2, 4.6, -1.5, -1.2%
(5) CCOC(=O)C1CCN(S(=O)(=O)c2ccc(OCC(=O)OC)cc2)CC1
  -0.3, -8.6, 0.6, -11.5, -0.7, x
(6) COc1ccc(N(C(=O)COc2ccccc2OC)S(=O)(=O)c2ccc(C)cc2)cc1
  -4.8, -22.2, -2.9, 12.4, 0.3, 6.8%
(7) Clc1ccc(-c2ccnc(Oc3ccc4ccccc4c3)n2)cc1
  12.1, 9.5, -1.6, 5.0, -0.4, 19.4%
(8) COc1ccc(C(=O)N2CCCCC2c2cc(C(=O)NCc3ccc(F)cc3)no2)cc1 (configuration not stated)
  -4.9, -6.3, -3.4, x, -0.4, 0.2%
(9) CC1(C)CC(=O)C/C(=N\NC(=O)C2CC23CCC3)C1 (configuration not stated)
  8.0, -2.0, -3.4, 6.3, -1.6, 3.8%
(10) COC(=O)C1=C(C)Nc2c(c(=O)n(C)c(=O)n2C)C1c1cccc(O)c1 (configuration not stated)
  -1.3, -3.0, 0.4, 3.7, 0.6, -0.7%
(11) COc1ccc(NC(=O)CC2C(=O)N(c3ccc(F)cc3)C(=O)N2Cc2ccc3c(c2)OCO3)cc1 (configuration not stated)
  x, x, x, -10.0, 0.0, 0.9%
(12) COc1ccnc(Oc2ccc(F)cc2)c1-c1ncn[nH]1
  -18.1, 2.2, 0.2, -4.4, 0.2, -0.2%
(13) COc1ccccc1N1CCN(C(=O)c2cn(Cc3ccccc3)nc2-c2cccnc2)CC1
  -1.2, -2.5, 2.1, -9.5, -0.4, 10.6%
(14) CCCn1cc(S(=O)(=O)c2cccc(Cl)c2)c(=O)c2cc(F)c(N3CCCC3)cc21
  x, x, x, 12.7, 0.7, 23.0%
(15) O=C(NCc1ccco1)c1cc2c(s1)CSC2
  u, -1.5, -1.2, -5.6, -0.1, 1.5%[38.3 µM]
(16) Cc1c(O)ccc(-c2n[nH]c(C(=O)O)c2-c2nc3ccccc3s2)c1O
  7.3, 0.6, 0.8, 26.4, -0.2, -0.2%
(17) CCC(=O)Nc1cc(C(C)(C)C)ccc1C(C)=O
  -0.7, -18.8, -2.3, -6.9, 2.4, 7.1%
(18) C[C@]12c3[nH]c4ccc(Cl)cc4c3CCN1C(=O)[C@@H](CC(=O)NCC13CC4CC(CC(C4)C1)C3)C[C@@H]2C(=O)N1CCOCC1
  -5.5, -4.0, -2.8, -11.5, 3.5, 15.0%
(19) CCCN1CCN(CCCNC(=O)Cn2nc(C)n3c(cc4cc(F)ccc43)c2=O)CC1
  -2.1, -17.0, 1.2, 27.0&-14.0, 0.7&-0.6, -0.9%&-0.2%
(20) O=C(Nc1ccc2c(c1)CCC2)c1cc(=O)[nH]c2ccccc12
  6.7, 1.1, 5.2, -22.2, 1.1, 3.8%
(21) O=S(=O)(c1cnc(Cl)c(Br)c1)N1CCN(c2ncccn2)CC1
  4.4, -6.0, 2.4, -27.8, -0.1, 8.7%
(22) CCCCCCOc1ccc(C2C(=O)N(C3CCCCC3)CC(=O)N2CCCC)cc1 (configuration not stated)
  x, x, x, -9.0, 12.6, 1.6%
(23) COc1ccc(N(CC(=O)NC2CCCC2)C(=O)CS(=O)CC(=O)Nc2ccc3c(c2)OCO3)cc1 (configuration not stated)
  -0.5, -7.2, -1.0, 2.1, 0.5, 2.1%
(24) CSc1ccc(S(=O)(=O)Nc2ccc(OCC(=O)N3CCOCC3)cc2)cc1
  6.4, 0.3, 0.5, 3.5, -0.8, 0.5%
(25) O=c1c2ccccc2c(/C=N/n2cnnc2)c(O)n1-c1ccccc1
  -1.9, 10.3, 0.4, -12.7, 0.0, -1.0%[38.3 µM]
(26) CCOc1ccc(C(=O)c2cn(Cc3cccc(OC)c3)c3cc4c(cc3c2=O)OCO4)cc1
  x, x, x, 3.8, 2.6, -0.4%
(27) CSc1nc2sc3c(c2c(=O)[nH]1)CC(C)(C)OC3
  -1.4, -0.7, -0.9, 11.5, 0.7, 1.6%
(28) CCCCn1c(N)c(N(CCC(C)C)C(=O)COC(=O)Cc2ccc(Cl)cc2)c(=O)[nH]c1=O
  0.6, -14.6, -0.7, 26.0, 1.5, -0.6%
(29) O=c1[nH]c(C(F)(F)F)nc2ccccc12
  0.6, -0.6, -2.3, -5.7, -0.5, 4.6%
(30) O=C(Cn1cnc2c(oc3ccccc32)c1=O)Nc1ccc(F)cc1F
  x, x, x, -4.0, -0.4, 0.0%
(31) CCn1cc(/C=C/C(=O)Nc2ccc(C)cc2Br)cn1
  1.0, 0.1, -3.4, -5.2, -0.5, -0.2%
(32) Cc1nc2ccccc2nc(C)c1=NOCC(=O)N(c1ccccc1)C(C)C
  -1.5, -0.1, 5.1, 19.3, 0.4, 3.0%
(33) Cc1ccccc1NC(=O)c1ccc(Cl)c(NC(=O)c2ccncc2)c1
  8.3, 0.3, -4.1, -4.0, 0.4, -0.5%
(34) COC(=O)c1ccccc1S(=O)(=O)Nc1ccc2cn[nH]c2c1
  -1.4, 6.9, -2.8, 80.6, 3.8, -2.1%
(35) CCCc1nn2c(=O)cc(COC(=O)c3ccc(NC(=O)COc4ccccc4)cc3)nc2s1
  x, x, x, -14.4, 0.9, 1.2%
(36) CC(=O)c1cc(C(=O)Nc2ccc3ccccc3c2)c(C)o1
  -6.6, 1.8, 3.1, 4.8, 0.3, 5.9%
(37) CC1CC(C)CN(CCCNC(=O)CCC(=O)N2CC(C)Oc3ccccc32)C1 (configuration not stated)
  7.2, -10.1, -6.4, 30.3, 0.1, -1.0%
(38) CN1CCN(C(=O)c2ccc(COc3ccc(Cl)cc3Cl)cc2)CC1
  -2.3, -14.4, 1.1, 0.8, -0.1, -6.6%[38.3 µM]
(39) COc1ccc(-c2cnc(C(N)=O)c(=O)[nH]2)cc1
  -7.9, -8.9, -4.1, 1.1, -0.4, -0.2%
(40) COC(=O)[C@@H]1CCCN1C(=O)[C@@H](NC(=O)OC(C)(C)C)C(C)C
  -4.0, -6.9, -3.4, -0.6&-11.2, -0.8&0.9, 0.0%
(41) COC(=O)C1CCN(c2nc3ccccc3nc2C(C#N)C(=O)OCC(C)C)CC1 (configuration not stated)
  -0.6, -6.9, -3.2, 2.3, 1.1, 1.4%
(42) COc1ccc(C2Sc3ccccc3NC3=C2C(=O)c2ccccc23)c(OC)c1OC (configuration not stated)
  x, x, x, -5.2, -0.4, 5.1%
(43) COc1ccc(-c2ocnc2C(=O)N2CCN(C(=O)C(c3ccccc3)c3ccccc3)CC2)cc1
  6.5, -8.5, -0.6, -14.3, 0.1, 0.3%
(44) Cc1ccc(CN2C(=O)C(C)Nc3ncnc(N4CCN(c5ccccn5)CC4)c32)cc1 (configuration not stated)
  -7.4, -43.5, -15.8, -2.8, 0.2, 3.7%
(45) CN(C)S(=O)(=O)N1CCC(Oc2ccc(C(=O)N3CCCCCC3)cc2)CC1
  2.3, -12.4, -3.3, 6.1, 0.3, 1.3%
(46) CC(NS(=O)(=O)CCNC(=O)c1ccccc1)c1ccccc1 (configuration not stated)
  0.6, -11.3, -4.8, -7.2, -0.5, -1.6%
(47) Cc1cccc(/C=N/NC(=O)CC(=O)NCCc2ccccc2)c1
  4.6, -3.4, 0.4, -20.7, 1.2, 4.9%
(48) CCOc1ccccc1N1CCN(C(=O)CC(C)C)CC1
  9.0, -15.5, -3.0, 5.8, -0.6, 0.3%
(49) CCC(C)N1C(=O)CCC1C(=O)O (configuration not stated)
  8.4, -4.8, 0.3, 1.3, 1.1, -1.8%[38.3 µM]
(50) COc1ccc(N2CCN(C(=O)c3cc(=O)c4cc(C)cc(C)c4o3)CC2)cc1
  1.1, 5.1, 4.3, 14.7, 0.5, 7.7%
(51) O=C(NCC(c1cccnc1)N1CCc2ccccc2C1)c1ccc(F)c(F)c1 (configuration not stated)
  x, x, x, -21.9, -0.1, -2.0%
(52) CSc1nc2nc3c(cc2c(=O)n1-c1ccc(C)cc1)COC(C)(C)C3
  -2.5, -11.9, -0.8, -2.4, 0.4, 0.0%
(53) CCN(CC(=O)Nc1c(F)cccc1F)C(=O)c1ccc(S(=O)(=O)N2CCCC2)cc1
  0.6, 4.3, -0.7, -8.8, -0.5, 1.9%
(54) COc1ccc(NCC(=O)N/N=C/c2c(C)nn(Cc3ccccc3)c2Cl)cc1
  u, 0.0, 1.3, 2.5, 0.6, 1.8%
(55) CCc1ccc(NC(=O)c2cnn3ccccc23)cc1
  2.9, -11.3, -3.5, 10.8, -0.2, 0.0%
(56) CC1(C)Cc2c(sc(NC(=O)c3ccc(Br)o3)c2C#N)CO1
  -2.4, -4.7, -1.0, 47.8, -0.3, -0.8%
(57) Brc1ccccc1OCCCCCN1CCOCC1
  3.6, -24.9, 0.7, 2.3, 0.1, 2.7%
(58) O=C(CN1C(=O)c2ccccc2S1(=O)=O)c1ccc(F)c(F)c1
  10.1, 10.5, -1.3, 43.2, 0.0, 0.3%
(59) COc1ccc(CNC(=O)CCc2c(C)nc3c4cccnc4nn3c2C)cc1
  x, x, x, 5.9, -0.5, -0.5%
(60) CCC(=O)N1c2nc(C(C)C)nn2C2(CCCCC2)[C@@H]2CCCC[C@@H]21
  x, x, x, -10.5, 0.8, -1.4%
(61) CC(=O)c1ccc(N2Cc3ccccc3/C2=N\C(=O)Nc2ccccc2)cc1
  -1.9, -9.2, -2.9, 2.6, -0.5, 4.6%

Screening results from PubChem.
